High-throughput results (PubChem)
SARS PLpro yeast: qHTS of Yeast-based Assay for SARS-CoV PLP; S. cerevisiae expressing SARS-CoV PLpro, growth rescue; control for the full effect not named in the record; Potency, µM (series often up to 32.9 µM), for inactives: at the highest dose activity, positive = growth rescue; 0.19% of 330,000 active; active means well fitted rising curve with a large enough effect; inconclusive means small, poorly fitted or top-dose-only effect; inactive means no such curve, though single readings can be large or run the other way; further: 0% is about no effect; nearly all actives have a fitted effect of over 55% in size; growth read by luminescence after 48 h
Marburg entry inh: qHTS for inhibitors of binding or entry into cells for Marburg Virus. 1.8% of 300,000 active. Potency, µM (titrated, usually from 37.8 µM), without a hit: top-dose activity change, negative = inhibition, hits mostly inhibitors. Marburg virus pseudotyped entry inhibition, cell reporter; control for the full effect not named in the record; about a third of the inactives were read at about 46 µM; active = well fitted inhibition curve with a large enough effect; inconclusive = small, poorly fitted or top-dose-only effect, or effect the other way; inactive = flat fitted curve, though single readings scatter; tested in HEK293 cells; about a fifth of its hits are not listed in these tables; further: on the % scale 0 is the no-effect control and ±100 the full control effect; luciferase read-out
Cruzain noTriton: qHTS Assay for Promiscuous and Specific Inhibitors of Cruzain (without detergent) | Cruzipain (Trypanosoma cruzi), P25779 | purified cruzain, Z-FR-AMC fluorescence, no detergent | Potency, µM, for the others: max response, negative = inhibition, hits mostly inhibitors | 2.3% of 200,000 active;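 further: plate controls were enzyme without inhibitor for no effect and buffer without enzyme for full effect; nearly all actives have a fitted effect of over 40% in size; top concentration of the series not given in the record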
Target sequence (P25779 123-467 limits assumed): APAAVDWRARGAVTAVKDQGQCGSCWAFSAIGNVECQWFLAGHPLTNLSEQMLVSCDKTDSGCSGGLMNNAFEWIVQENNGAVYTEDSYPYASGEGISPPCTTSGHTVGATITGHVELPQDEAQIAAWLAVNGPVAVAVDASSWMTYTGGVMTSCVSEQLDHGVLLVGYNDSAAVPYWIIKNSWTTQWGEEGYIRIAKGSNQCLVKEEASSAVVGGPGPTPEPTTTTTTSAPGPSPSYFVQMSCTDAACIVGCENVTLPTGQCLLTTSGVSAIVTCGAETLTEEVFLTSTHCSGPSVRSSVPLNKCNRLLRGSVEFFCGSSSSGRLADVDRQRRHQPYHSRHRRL
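Detergent-free condition (0.00005% Triton X-100) in acetate buffer pH 5.5 with DTT. 1.5 nM enzyme and compound were pre-mixed 15 min, then 2 uM Z-FR-AMC substrate added; reaction progress from fluorescence change between first and third reads (60 s).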
RE007 growth inh: qHTS Assay for Inhibitors of the HIV-1 protein Vpr | S. pombe RE007 Vpr strain, BacTiter-Glo ATP luminescence, 24 h; control for the full effect not named in the record | Potency, µM (titrated, usually from 92.2 µM), for inactives: top-dose activity change, negative = less growth | 0.21% of 360,000 active | AID 651644, 2012; active = well fitted falling curve with a large enough effect; inconclusive = small, poorly fitted or top-dose-only effect; inactive = no such curve, though single readings can be large or run the other way;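 further: on the % scale 0 is the no-effect control and ±100 the full control effect; nearly all actives have a fitted effect of over 50% in size; the assay follows cell death caused by Vpr and the record does not say whether a fall means rescue or toxicity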
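Fission yeast strain RE007, carrying one chromosomally integrated HIV-1 vpr copy, was seeded at OD 0.01 in PMG+AL medium with 23 nL pinned compound. After 24 h at 30 °C and 99% humidity, viability was read by BacTiter-Glo luminescence.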
NS1 function inh: qHTS Assay for Inhibitors of Influenza NS1 Protein Function | S. cerevisiae slowed by influenza A NS1, growth recovery by OD600 | Potency, µM (highest dose often 46.1 µM), inactives show top-dose activity, positive = more growth | 0.4% of 270,000 active | AID 2326, 2010; active means well fitted rising curve with a large enough effect; inconclusive means small, poorly fitted or top-dose-only effect; inactive means no such curve, though single readings can be large or run the other way; further: nearly all actives have a fitted effect of over 50% in size
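In this qHTS, NS1 from influenza A is expressed in budding yeast, where it slows growth. Cells are switched from glucose to 2% galactose medium (pH 6.0, -URA), treated with compound, and growth recovery is read at OD600.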
StopGo reporter: High Throughput Screening for Foot and Mouth Disease Virus Antivirals | human cells with a luciferase reporter of 2A StopGo recoding; control for the full effect not named in the record | Potency, µM (doses to about 57.9 µM), inactives show at the highest dose signal change, negative = less light | 1.2% of 410,000 active; active = well fitted falling curve with a large enough effect; inconclusive = small, poorly fitted or top-dose-only effect; inactive = no such curve, though single readings can be large or run the other way; tested in HEK293T cells; further: on the % scale 0 is the no-effect control and ±100 the full control effect; nearly all actives have a fitted effect of over 45% in size; luciferase light after 4 h
Cruzain Triton: qHTS Assay for Promiscuous and Specific Inhibitors of Cruzain (with detergent); Cruzipain (Trypanosoma cruzi), P25779; purified cruzain, Z-FR-AMC fluorescence, 0.01% Triton; Potency, µM, for inactives: max response, negative = inhibition, actives largely listed as inhibitors; 0.43% of 200,000 active; AID 1478, 2009;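 further: plate controls were neutral wells for no effect and buffer without enzyme for full effect; nearly all actives have a fitted effect of over 40% in size; top concentration of the series not given in the record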
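Sodium acetate buffer (100 mM, pH 5.5) containing 5 mM DTT and 0.01% Triton X-100 hosted 1.5 nM cruzain and test compound for 15 min at room temperature. Cleavage of 2 uM Z-FR-AMC was then tracked by fluorescence.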
LASV entry inh: qHTS for Inhibitors of binding or entry into cells for Lassa Virus. 1.2% of 300,000 active. Potency, µM (highest dose often 37.9 µM), for inactives: at the highest dose activity change, negative = inhibition, hits mostly inhibitors. Lassa virus pseudotype entry inhibition, cell reporter; control for the full effect not named in the record. AID 540256, 2011; active means well fitted inhibition curve with a large enough effect; inconclusive means small, poorly fitted or top-dose-only effect, or effect the other way; inactive means flat fitted curve, though single readings scatter; tested in HEK293 cells; further: on the % scale 0 is the no-effect control and ±100 the full control effect; nearly all actives have a fitted effect of over 50% in size; luciferase read-out
* hit, by the source's call; ? = inconclusive; . = no result given; & = joins results of further samples; [ ] = remark or other dose. Unless noted, the call rests on the fitted dose curve; in most records, active means well fitted curve in the direction sought with a large enough effect; inconclusive means small, poorly fitted or top-dose-only effect, or another doubt; inactive means no such curve, though single readings can be large; an effect the other way counts as inactive or inconclusive. Potency means the concentration at half of the fitted maximal effect.

SMILES	SARS PLpro yeast	Marburg entry inh	Cruzain noTriton	RE007 growth inh	NS1 function inh	StopGo reporter	Cruzain Triton	LASV entry inh
N#Cc1c(-n2ncnc2-c2ccc(Br)cc2)sc2c1CCCCC2	.	.	8%	.	.	-3%	-2.1%	22%[46.1 µM]
CCOC(=O)C1CCCN(C(=O)c2ccccc2[N+](=O)[O-])C1 (stereo not given)	1%	13%[46.1 µM]	.	4%	-1%	3%	.	-5%
COc1ccc(C)cc1NC(=O)CCS(=O)(=O)c1cc2c(cc1Cl)NC(=O)CO2	3%	.	.	5%	5%	15%	.	.
Cc1ccn(S(=O)(=O)c2ccc3oc(=O)ccc3c2)n1	-18%	-8%[46.1 µM]	.	-6%	-22%	-8%	.	-6%[46.1 µM]
CCN1CCN(S(=O)(=O)c2ccc(S(=O)(=O)NC3CC3)cc2)CC1	-1%	?	.	-5%	0%	8%	.	11%[46.1 µM]
Cc1ccc(-n2nc3c(c2NC(=O)c2ccc(F)c(F)c2)CS(=O)(=O)C3)cc1	-5%	-17%	.	-8%	3%	-7%	.	-15%
O=C(CSc1n[nH]c(-c2ccccc2)n1)N1CCN(c2ccccc2F)CC1	.	.	24%	.	.	-10%	-4.6%	7%[46.1 µM]
COCCn1c(-c2cc(OC)c(OC)c(OC)c2)nc2oc3ccccc3c(=O)c2c1=O	0%	?	-10%	-1%	-39%	0%	-3.2%	5.8µM*
COc1ccc(C)cc1NC(=O)COC(C)=O	-3%	2%	-3%	-12%	-8%	18%	0.9%	?
CCC(O)(C#CCN1CCCCC1)CC	18%	15%	0%	-7%	6%	-22%	-1.9%	13%
CN1CCCC2(CCCN(Cc3nc(Cc4cccc(C(F)(F)F)c4)no3)C2)C1 (stereo not given)	0%	?	.	-3%	0%	-17%	.	19%[46.1 µM]
CC(=O)Oc1ccc2c(C)cc(=O)[nH]c2c1	0%	-1%	-2%	10%	0%	7%	-0.3%	0%
C/C(=N\NC(=O)c1cc(-c2cccc(OC(C)C)c2)nc2ccccc12)c1cccnc1	6%	?	.	1%	13%	-2%	.	?
CC(=O)NCc1cn2c(C)csc2n1	?	.	-7%	1%	9%	-13%	-2.6%	.
CCC1CCc2c(n(C)c3ccccc3c2=O)O1 (stereo not given)	-15%	7%	-5%	7%	-23%	32%[activator]	-1.2%	?

5 entries already listed, ordered by count of non-hydrogen atoms, largest number first.
SMILES	SARS PLpro yeast	Marburg entry inh	Cruzain noTriton	RE007 growth inh	NS1 function inh	StopGo reporter	Cruzain Triton	LASV entry inh
C/C(=N\NC(=O)c1cc(-c2cccc(OC(C)C)c2)nc2ccccc12)c1cccnc1	6%	?	.	1%	13%	-2%	.	?
O=C(CSc1n[nH]c(-c2ccccc2)n1)N1CCN(c2ccccc2F)CC1	.	.	24%	.	.	-10%	-4.6%	7%[46.1 µM]
CCC1CCc2c(n(C)c3ccccc3c2=O)O1 (stereo not given)	-15%	7%	-5%	7%	-23%	32%[activator]	-1.2%	?
COc1ccc(C)cc1NC(=O)COC(C)=O	-3%	2%	-3%	-12%	-8%	18%	0.9%	?
CC(=O)Oc1ccc2c(C)cc(=O)[nH]c2c1	0%	-1%	-2%	10%	0%	7%	-0.3%	0%

Next section:
SMILES	SARS PLpro yeast	Marburg entry inh	Cruzain noTriton	RE007 growth inh	NS1 function inh	StopGo reporter	Cruzain Triton	LASV entry inh
COc1cccc(-c2cc(C(=O)N3CCOCC3)no2)c1	1%	10µM*	.	-13%	4%	-1%	.	-21%[46.1 µM]
CN(CC(=O)Nc1ccccc1Br)C(=O)CCC1CCCC1	2%	14%	.	-8%	2%	12%	.	18%
CCOCCCN(Cc1ccco1)C(=O)c1cc2c(s1)-c1c(C)cccc1OC2	.	-12%[46.1 µM]	?	.	.	17%	-26%	.
COc1ccc(CNCC(=O)Nc2cc(C)nn2-c2nc(C)cc(C)n2)cc1OC	-1%	-9%	.	-18%	2%&-1%	-22%	.	.
COc1ccc(OCC(N)=O)cc1	-1%	19%[46.1 µM]	.	1%	-1%	-13%	.	1%[46.1 µM]
COc1ccc(NC(=O)CSc2nnc(NC(=O)NC3CCCCC3)s2)cc1OC	.	.	?	.	.	38%[activator]	-3.9%	-2%[46.1 µM]
COc1ccccc1N1CCN(S(=O)(=O)c2ccc3c(c2)NC(=O)C(C)S3)CC1 (stereo not given)	2%	.	.	-2%	-10%	-25%	.	.
CCOc1cc(CNCCSc2nnnn2C)ccc1OCc1ccc(Cl)cc1Cl	.	?	14%	.	.	?	-3.4%	-5%[46.1 µM]
COc1ccccc1NC(=O)c1sc2ncn(Cc3cccc(C)c3)c(=O)c2c1C	1%	?	?	3%	-1%	.	8.1%	-29%
Cc1cc(C(=O)C(=O)Nc2nncs2)c(C)n1-c1ccc(Cl)cc1	.	?	1%	.	.	24%	-2.9%	?
NCC1OC(n2cnc3c(N)ncnc32)CC1O (stereo not given)	.	14%	.	16%	.	-2%	.	1%
CCc1noc(C)c1C(=O)Nc1cc(S(=O)(=O)N2CCCCC2)ccc1N(C)C	-22%	?	.	33%	.	-8%	.	?
COCCn1c(SCC(=O)Nc2nc3ccccc3s2)nnc1-c1ccoc1C	.	-14%	.	-10%	.	-23%	.	-2%
NS(=O)(=O)c1cccc(NC(=S)NC(=O)C23CC4CC(CC(C4)C2)C3)c1	10%	?	1%	9%	28%	-6%	-4.1%	?
COc1ccc(-c2nnc(SCC(=O)Oc3cc(C)ccc3C)o2)cc1	.	-21%[46.1 µM]	7%	.	.	-23%	-1.7%	12%[46.1 µM]
O=C(c1cc(-c2cccs2)on1)N1CCN(c2ccc(F)cc2)CC1	2%	-13%	-17%	8%	-5%	-10%	-8.7%	-14%
CC(C)(C)[C@H](N)C(=O)N[C@H]1CCC2C3CC=C4C[C@@H](O)CC[C@]4(C)C3CC[C@@]21C (stereo not given in full)	7%	?	.	9%	.	-12%	.	?
Cc1nc(N2CCCC2C(=O)O)c2oc3ccccc3c2n1 (stereo not given)	-6%	13%	-14%	-8%	-7%	-14%	-9.6%	14%
CCN(CC)c1ccc(-c2nnc(SCC(=O)N(CCOC)c3c(N)n(CC(C)C)c(=O)[nH]c3=O)o2)cc1	-1%	?	.	-2%	.	7%	.	-8%[46.1 µM]
Cc1cccc2c(CCNC(=O)c3ccc([N+](=O)[O-])cc3)c[nH]c12	12%	11%	4%	-16%	-5%	-16%	-11%	-14%
CN1CCOC(=O)/C1=N/Nc1cc(Cl)ccc1Cl	-3%	?	.	84%	.	-4%	.	-4%[46.1 µM]
CN(C1CCCCC1)S(=O)(=O)CCNC(=O)c1ccccc1	-4%	5%	.	15%	.	9%	.	2%
Cc1cc(N)c(-n2cc3c(c2-c2ccc(Br)cc2)c(=O)n(C)c(=O)n3C)cc1C	.	1%[46.1 µM]	-5%	.	.	-9%	-2.2%	-20%[46.1 µM]
COCCn1c(=O)[nH]c2cc(C(=O)N3CCN(c4cccc(Cl)c4)CC3)ccc2c1=O	1%	?	.	3%	17%	?	.	?
CCOCCCn1c(=S)[nH]c2cc(C(=O)N3CCC(C(N)=O)(N4CCCCC4)CC3)ccc2c1=O	-1%	30%[46.1 µM]	.	-23%	.	-27%	.	14%
COc1ccc(S(=O)(=O)n2[nH]c(=O)c(CCO)c2C)cc1	7%	3%[46.1 µM]	.	8%	7%	0%	.	-29%[46.1 µM]
COc1ccccc1N1CCN(C2CCCN(C(=O)CCc3c(C)noc3C)C2)CC1 (stereo not given)	7%	.	.	-5%	-6%	-3%	.	.
CCOc1cc(/C=N/NC(=O)c2cc(-c3ccccc3)nc3ccccc23)ccc1O	1%	?	.	1%	2%	-28%	.	?
Nc1ccc2c(c1)oc1ccccc12	3%	?	2%	?	-3%	42%[activator]	1.2%	?
O=C(COC(=O)CNC(=O)c1ccccc1F)Nc1nnc(-c2ccccc2)o1	0%	9%[46.1 µM]	.	-23%	.	-5%	.	10%
Cc1ccc(C)c(NC(=O)Cn2c(=O)n(CCCS(=O)(=O)C3CCCCC3)c(=O)c3ccccc32)c1	.	3%[46.1 µM]	-16%	.	.	-5%	-8.9%	10%[46.1 µM]
COC(=O)c1sccc1S(=O)(=O)NCc1ccc(S(N)(=O)=O)cc1	1%	2%	.	-10%	-7%	-16%	.	5%
CCN(CCNS(=O)(=O)c1ccc2[nH]c(=O)sc2c1)c1ccccc1	0%	.	-1%	-12%	-14%	-16%	-4.7%	.
S=c1nc2ccccc2c2nc(-c3cccnc3)[nH]n12	2%	.	.	8%	5%	-9%	.	.
CC1([N+](=O)[O-])COP(=O)(Nc2ccc(F)cc2)OC1 (stereo not given)	.	9%	.	-21%	.	-14%	.	1%
Cc1cc(C)n2c(SCC(=O)N(C)C3CCCCC3)nnc2n1	-1%	-3%	.	0%	4%	2%	.	-13%
CN=C1SC(CC(=O)Nc2ccc(F)cc2F)C(=O)N1/N=C(\C)c1cccc(OCC(=O)O)c1 (stereo not given)	-1%	3%[46.1 µM]	.	-4%	2%	-9%	.	6%
CCN(/C=N/c1sc2c(c1C#N)CC(C)(C)NC2(C)C)CC	-5%	-5%	-2%	0%	-1%	-9%	0.9%	1%
CCN1/C(=C2/SC(=S)N(NC(C)=O)C2=O)Sc2ccc(OC)cc21	-1%	.	.	7%	-7%	-25%	.	.
O=C(c1ccco1)N(Cc1ccc(Cl)cc1)Cc1ccco1	?	.	.	11%	-36%	1%	.	.
COCCNc1c(-c2cc3ccc(C)c(C)c3[nH]c2=O)nc2ccccn12	-2%	?	.	-13%	2%	16%	.	5µM*
O=C(O)CSc1nc(-c2cccs2)cc(C(F)(F)F)n1	7%	?	.	1%	9%	-14%	.	9%
O=C(CSc1nc2ccccc2o1)NCCOc1ccccc1	-21%	4%	-1%	11%	-14%	-2%	0.3%	-26%[14.3 µM]
